Screening results (PubChem)
UUG fidelity: yeast start codon fidelity modulation | S. cerevisiae UUG-firefly luciferase reporter, luminescence/redox ratio | activity score, % at 18.7 µM | 350,000 compounds, 0.13% hits | AID 602363;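 active = replicate mean at a twofold rise or more, about +100% in these data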;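 also: firefly luciferase made from a UUG start codon reports start codon fidelity; reporter light over untreated wells divided by growth signal over untreated wells; some hits fall short of that in this replicate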
CSC inhib: blocks cancer stem cells. cancer stem cell-like cells viability, luminescence. inhibition, % at 7.5 µM. 300,000 compounds, 1.1% hits;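 active = mean at 75% or more and at least half the replicates too; tested in HMLE shEcad cells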;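 also: 0% = median of negative and 100% = median of positive control wells; the first replicate is given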
eIF4H inh: inhibitors of RNA binding by human eIF4H; eIF4H fluorescence polarization binding assay; inhibition, % at 35 µM; 290,000 compounds, 0.94% hits;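 active = 50% or more with normal probe brightness, or confirmed in later tests; about a fifth of its hits are not listed in these tables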;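 also: calls also rest on retests at 20 µM and on dose response follow-up; 0% = protein and probe with vehicle and 100% = probe without protein; strong numbers were not always called active; many hits fall short of the cut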
Rce1 inh: blocks yeast Ras-converting enzyme. Q03530. AID 2563. calls only. yeast membranes, quenched prenylated peptide cleavage fluorescence. 290,000 compounds, 0.27% hits;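 active = fall in fluorescence gain of 50% or more versus controls, with final raw signal at or below 3038400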;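 also: plate controls were neutral control wells for no effect and wells lacking membranes for full effect; tested at 10 µM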
Target sequence (Q03530 whole entry, looked up): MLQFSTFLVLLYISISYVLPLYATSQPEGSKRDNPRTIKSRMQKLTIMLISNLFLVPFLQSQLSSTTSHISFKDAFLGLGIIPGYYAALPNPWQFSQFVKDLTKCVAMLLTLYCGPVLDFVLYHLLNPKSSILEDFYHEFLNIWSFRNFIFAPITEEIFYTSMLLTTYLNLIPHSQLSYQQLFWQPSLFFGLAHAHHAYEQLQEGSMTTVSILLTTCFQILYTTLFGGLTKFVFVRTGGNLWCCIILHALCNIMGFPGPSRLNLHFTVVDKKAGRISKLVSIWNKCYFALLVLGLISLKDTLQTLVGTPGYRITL
MT1-MMP act inh: blocks activation of human MT1-MMP. P50281. HT1080 RFP-PRO-GFP cells, GFP/RFP ratio fluorescence, overnight; percent of plate control window, DMSO zero. 360,000 compounds, 0.061% hits. GFP/RFP ratio change, % at 20 µM. AID 651647;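 active = GFP/RFP ratio change of at least 30% with cell ATP level not reduced by more than half and red fluorescence within 50% of control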; also: strong numbers were not always called active
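Read-out: GFP/RFP fluorescence ratio; Test system: RFP-PRO-GFP reporter HT1080 cells; Compound dosing: single-point 20 µM compound, 1% DMSO; Times: overnight compound exposure at 37 °C.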
PABP polyA inh: PABP-poly(A) binding inhibition; PABP-poly(A) RNA binding, fluorescence polarization; inhibition, % at 35 µM; 290,000 compounds, 1% hits; AID 2014;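 active = 50% or more with normal probe brightness, or confirmed in later tests; about a fifth of its hits are not listed in these tables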;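 also: calls also rest on retests at 20 µM and on dose response follow-up; controls were probe without protein and protein plus probe with vehicle; some compounds called inactive have numbers as strong as hits; many hits fall short of the cut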
HIV Env fusion: inhibitors of HIV Env-mediated cell fusion | AID 651610 | 360,000 compounds, 1.1% hits | HeLa-JRFL Env/CEM21 cell fusion, luciferase | inhibition, % at 12.3 µM;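 active = mean replicate inhibition score of at least 50 and every replicate individually at or above 50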;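 also: 0% = plate neutral controls and 100% = maraviroc near 300 nM; one replicate is shown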
eIF4H inh retest: second read-out of eIF4H inh, no call of its own (marks repeat the call); inhibition, %; compound at 20 µM; confirmation average;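 mean of two retest wells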
PABP polyA inh retest: further read-out of PABP polyA inh, marked with its call; inhibition, %; compound at 20 µM; confirmation repeats;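 mean of two retest wells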
MT1-MMP act inh RFP: also measured in MT1-MMP act inh; calls as there; RFP signal change, %; measured here: RFP expression control read;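 0 = vehicle wells; hits needed this value within 50% of zero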
* marks the source's active call; other numbers are inactive results; i = inactive; / = no result given. The list is partial; rates above refer to the full screens.

SMILES | UUG fidelity | CSC inhib | eIF4H inh | Rce1 inh | MT1-MMP act inh | MT1-MMP act inh RFP | PABP polyA inh | HIV Env fusion | others
NS(=O)(=O)c1ccc(CNC(=O)c2sccc2-c2ccccc2)cc1 | -1.7 | -4.5 | -7.2 | i | -2.0 | -2.7 | 0.7 | 4.2
CCOc1ccc(/C=N/NC(=O)c2cc(-c3ccco3)nc3ccccc23)cc1 | / | -7.1 | 58.7 | i | -3.0 | -3.3 | 7.4 | -20.3 | eIF4H inh retest=-3.7;PABP polyA inh retest=0.2
O=C(O)/C=C/c1cn(Cc2ccccc2)nc1-c1cccnc1 | / | 12.3 | 0.5 | i | 0.4 | -1.0 | 2.8 | -6.4
COc1cccc(CSc2nnnn2-c2ccc(O)cc2)c1 | / | 4.3 | -2.8 | i | -2.8 | -8.8 | -22.9 | 12.8
CCOC(=O)N1CCC(NC(=O)c2ccc3c(c2)N(C)C(=O)/C(=C/c2cccc(OC)c2)S3)CC1 | -6.6 | 66.8 | -5.8 | i | -3.5 | -30.1 | -3.5 | 11.4
O=[N+]([O-])c1ccc(NN=Cc2ccc(O)cc2)nc1 | -18.2 | / | / | / | 5.7 | -10.9 | / | -106.9
C=CCN(CC(=O)NCC1CCCO1)C(=O)CCC(=O)Nc1cc(C)on1 (stereo not drawn) | -6.5 | 33.3 | -0.7 | / | 0.6 | 1.4 | 7.8 | /
Cc1cccc(NC(=O)Cc2nnc(NC(=O)Nc3ccccc3F)s2)c1 | / | -13.7 | -0.8 | i | -1.1 | 0.5 | -1.1 | -12.8
COCCNC(=O)C1(C)CCCN(C(=O)c2ccc(C)c(F)c2)C1 (stereo not drawn) | 4.2 | / | / | / | 3.5 | 4.0 | / | -0.7
COc1ccc(CCNC(=O)CCS(=O)(=O)c2ccc(C)cc2)cc1OC | -7.7 | -3.1 | -8.4 | i | -0.5 | 0.6 | 6.4 | 14.5
CCCCC(CCC(=O)Nc1nccs1)C(=O)O (stereo not drawn) | -14.4 | / | -1.6 | i | 2.5 | 1.3 | 6.5 | -29.2
O=c1cc(O)nc(-c2ccccc2)s1 | / | / | 5.3 | / | -4.5 | 2.5 | -0.9 | 10.3
CCCN(CCC)c1nc2ccccc2nc1C(C#N)C(=O)OCCOC (stereo not drawn) | -6.6 | -1.4 | 7.7 | i | -4.3 | -5.2 | 2.1 | /
CCCCCCCCCOC(=O)C[n+]1csc(CCO)c1C | -23.8 | -11.9 | -6.8 | i | 0.6 | -3.7 | 3.9 | /
O=C(COC(=O)c1ncc(Cl)c(Cl)c1Cl)NNC(=O)c1ccccc1 | -16.7 | -6.8 | / | i | -1.6 | -0.2 | / | -2.3
COc1ccc(CCC(=O)NNC(=O)Cn2nc(C)cc2C)cc1 | -21.8 | 0.6 | -6.6 | i | 1.8 | 4.6 | 3.9 | -100.7
COCCn1c(=O)[nH]c(=O)c2c1nc(-c1ccc(-c3ccc(Cl)cc3[N+](=O)[O-])o1)n2Cc1ccccc1 | / | -4.9 | 19.2 | i | -0.8 | 0.7 | 0.4 | 11.2
CC(N=Cc1cccc(O)c1O)c1ccccc1 (stereo not drawn) | -15.6 | -7.7 | 71.7 | i | -4.9 | 6.6 | 44.1 | / | eIF4H inh retest=25.2;PABP polyA inh retest=29.5
O=C(COC(=O)CCC(=O)c1ccc(F)cc1)Nc1nnc(-c2ccccc2)o1 | -19.2 | 11.1 | / | i | 2.3 | 5.8 | / | -3.2
COc1ccc(C(C)N2CC34C=CC(O3)C(C(=O)OCC(C)C)C4C2=O)cc1 (stereo not drawn) | 1.0 | / | -11.1 | i | / | / | -9.7 | /
CNC(=S)N/N=C(\C)c1ccc2c(c1)OCCO2 | -12.4 | 1.7 | -1.7 | i | 7.3 | 5.8 | -7.2 | -61.4
COc1cccc(/C=C/C(=O)OCC(=O)NC2CC2)c1OC | -17.0 | -9.6 | / | / | 0.8 | 0.7 | / | -0.6
C#CCOCCOCCOCCNc1nc(N2CCN(C(=O)[C@H](CCC(=O)O)n3cc([C@@H](N)CO)nn3)CC2)nc(N2CCN(C(=O)[C@H](CCC(=O)O)n3cc([C@@H](N)CCSC)nn3)CC2)n1 | -0.1 | 17.2 | / | / | 0.3 | 3.6 | / | 8.4
Cc1coc2c(C)c3oc(=O)c(CCC(=O)N4C[C@H]5C[C@@H](C4)c4cccc(=O)n4C5)c(C)c3cc12 | -0.1 | -3.8 | -11.2 | i | 7.3 | -3.0 | -10.7 | /
O=C(NCc1ccc2c(c1)OCO2)c1cc([N+](=O)[O-])ccc1N1CCOCC1 | -13.0 | 46.4 | / | / | -6.2 | -12.5 | / | /
Remaining list, next part.
SMILES | UUG fidelity | CSC inhib | eIF4H inh | Rce1 inh | MT1-MMP act inh | MT1-MMP act inh RFP | PABP polyA inh | HIV Env fusion | others
CC(=O)c1sc(NC(=O)c2ccccc2F)nc1C | -33.4 | 10.2 | -10.3 | i | 4.8 | 8.6 | -3.8 | -28.2
COc1ccc(C2CC3(O)NC(=O)C(C#N)(C3C)C2(C#N)C#N)cc1 (stereo not drawn) | -18.9 | 0.9 | 3.0 | i | 3.8 | 3.7 | 4.9 | 3.9
COc1cccc(F)c1C(C[N+](=O)[O-])c1c(N)n(C)c(=O)n(C)c1=O (stereo not drawn) | -31.7 | 71.3 | -5.7 | i | 6.3 | -14.5 | 7.8 | -43.7
CS(=O)(=O)N1CCN(C(=O)c2ccncc2)CC1 | 8.4 | 6.3 | 0.9 | i | -1.1 | -1.2 | 5.1 | /
Cc1cc(C)n(-c2cc(Cl)ccc2[N+](=O)[O-])n1 | / | -3.8 | -9.4 | i | 0.5 | 1.1 | -2.9 | 5.8
CCCCn1c(N)c(N(CCOC)C(=O)CCNC(=O)c2ccccc2Cl)c(=O)[nH]c1=O | -7.5 | -3.4 | 2.0 | i | -0.2 | 1.5 | 12.2 | 1.3
Cc1ccc(S(=O)(=O)N2CCN(C(=O)COC(=O)COc3ccccc3)CC2)cc1 | -2.5 | -5.2 | 6.6 | i | -2.5 | 3.4 | 8.2 | -7.5
Cn1ccnc1CN1CCN(C(=O)c2cc(COc3ccc(F)c(F)c3)on2)CC1 | -7.5 | -11.4 | 7.9 | / | 1.1 | 4.9 | -0.5 | -14.6
CSCc1c(C(=O)NC2CCCc3ccccc32)oc2ccccc12 (stereo not drawn) | -14.8 | -8.3 | -1.1 | i | -23.1 | -19.4 | 9.4 | -17.3
C=CC[C@@H]1C=C[C@H](O/N=C/c2ccc(C(=O)N3[C@H](c4ccc(C)cc4)[C@@H](C)CC[C@H]3C(=O)OC)cc2)[C@@H](CO)O1 | / | 23.0 | -4.1 | i | / | / | -7.0 | /
Cc1nc2sccn2c(=O)c1S(=O)(=O)NCCc1ccc(Cl)cc1 | -23.2 | -12.1 | -2.0 | i | 0.3 | -2.1 | -14.2 | 1.0
Cc1ccc(NC(=O)c2cc([N+](=O)[O-])ccc2N2CCOCC2)cc1C | -3.6 | -4.9 | 84.5 | i | 0.7 | -2.1 | 34.6 | 6.0 | eIF4H inh retest=-10.4;PABP polyA inh retest=8.3
CC(=O)OCP(C)(=O)COC(C)=O | -13.7 | -7.5 | -3.1 | i | -0.3 | 3.4 | -10.7 | /
O=C(NC(=S)Nc1nc(-c2cccc3ccccc23)cs1)c1cc2ccccc2o1 | / | -21.7 | 4.6 | i | 2.9 | 1.8 | 2.1 | /
O=C(COc1ccc(Cl)cc1)Nc1cccc(S(=O)(=O)NC2=NCCCCC2)c1 | 14.6 | -9.6 | / | i | 3.6 | -4.4 | / | -6.9
CC(C)(C)c1ccc(C(=O)N2CCC(C(=O)NCc3ccncc3)CC2)cc1 | -22.4 | 8.0 | 8.3 | i | 4.2 | 0.7 | 26.0 | /
Cc1ccc(CN(CC(O)COc2cccc3[nH]cc(C)c23)C(C)(C)C)cc1 (stereo not drawn) | 3.9 | 75.9* | -9.3 | i | -0.8 | 1.8 | -1.1 | -0.8
Cc1ccc(NC(=O)C2CC(O)CN2C(=O)OCc2ccccc2)cc1C (stereo not drawn) | -0.7 | / | -2.9 | i | -0.7 | -1.3 | -4.1 | /
NCC(O)COc1ccc2c(c1)OCO2 (stereo not drawn) | -11.8 | -6.4 | -13.1 | i | -2.0 | -3.9 | 0.2 | /
O=C(NCCc1c[nH]c2ccccc12)/C(=C\c1cccnc1)NC(=O)c1cccs1 | / | 10.2 | 0.3 | i | -2.7 | -0.5 | 0.5 | /
Cc1cccc(OC(C)C(=O)Nc2ccccc2C(=O)N2CCCCC2)c1 (stereo not drawn) | 9.5 | -6.7 | -6.6 | i | 1.4 | -8.7 | -4.7 | 14.5
COc1ccc(N=C2SC(C(N)=O)CC(=O)N2CCc2ccc(OC)c(OC)c2)cc1 (stereo not drawn) | -13.7 | -2.2 | 9.0 | i | 0.2 | 3.7 | -1.7 | /
CC(C)(C)NC(=O)/C=C/c1ccc(C(F)(F)F)cc1 | / | 0.9 | -2.6 | i | 2.5 | 4.5 | -3.0 | 10.3
O=C(O)COc1cnc2ccccc2n1 | -15.5 | 20.1 | -0.1 | i | -9.4 | 0.9 | -0.7 | 6.4
Cc1nc(NC(=O)c2ccccc2O)sc1C | -20.3 | 8.5 | 0.4 | i | -2.7 | -1.1 | 2.6 | -36.5
The listing continues.
SMILES | UUG fidelity | CSC inhib | eIF4H inh | Rce1 inh | MT1-MMP act inh | MT1-MMP act inh RFP | PABP polyA inh | HIV Env fusion | others
O=C1CSC(c2cccnc2)N1c1ccccc1 (stereo not drawn) | -20.3 | -8.0 | -10.6 | i | 1.3 | 0.8 | 2.1 | 4.1
O=[N+]([O-])c1cnc2ccccn12 | -12.4 | -17.1 | -1.9 | i | -1.6 | 1.8 | -11.0 | -3.6
CN1CCN(C(=S)NC(=O)c2ccc(C(C)(C)C)cc2)CC1 | -20.6 | 0.1 | -4.8 | i | -1.7 | 0.3 | -8.4 | /
COc1ccc(CSCC(=O)N/N=C/c2ccccc2O)cc1 | / | 8.6 | 0.4 | i | 4.7 | 0.4 | -4.5 | 21.6
CC(C)c1ccc(NC(=O)c2ccc3snnc3c2)cc1 | -3.9 | 2.4 | -7.6 | i | 8.7 | -4.6 | 9.6 | -24.1
O=C(COC(=O)c1cccnc1Cl)c1ccccc1 | -35.5 | 9.4 | -11.5 | i | 4.1 | -1.5 | 2.5 | /
CCOC(=O)C1(CC2CC2)CCN(Cc2cn[nH]c2-c2cccc(F)c2)CC1 | / | -4.2 | 1.9 | i | 0.5 | 4.0 | -2.6 | -9.6
CCOc1ccccc1NC(=O)c1ccc2[nH]c(C)c(C)c2c1 | -11.2 | 3.7 | -7.5 | i | 4.9 | -2.4 | 6.2 | -0.4
O=C(COC(=O)c1cccc(F)c1)Nc1cccnc1Cl | -11.7 | 0.2 | 17.6 | i | 7.7 | 2.5 | 6.8 | 7.1
Cc1ccc(S(=O)(=O)N2C[C@H]3[C@H]4C(=O)N(C)C(=O)[C@H]4CC(=O)[C@H]3[C@@H]2c2ccccc2Cl)cc1 | -0.3 | / | / | / | 3.1 | 4.7 | / | -45.2
COc1ccc(CCNCC(=O)Nc2ccc(C)c(S(=O)(=O)N(C)C)c2)cc1OC | 11.3 | -5.4 | 5.3 | i | 3.3 | 0.0 | -3.4 | 15.7
CCOC(=O)c1ccc(NC(=S)N2CCN(C)CC2)cc1 | -25.6 | -8.2 | -0.6 | i | 0.2 | 0.5 | -3.9 | -2.9
O=C(COC(=O)c1cccnc1Cl)c1ccc2c(c1)OCCO2 | -78.3 | -6.4 | -1.6 | i | -1.7 | 0.6 | 29.4 | -12.0

Retrieved by structure from the list above (2):
SMILES | UUG fidelity | CSC inhib | eIF4H inh | Rce1 inh | MT1-MMP act inh | MT1-MMP act inh RFP | PABP polyA inh | HIV Env fusion | others
O=[N+]([O-])c1ccc(NN=Cc2ccc(O)cc2)nc1 | -18.2 | / | / | / | 5.7 | -10.9 | / | -106.9
O=C(COC(=O)CCC(=O)c1ccc(F)cc1)Nc1nnc(-c2ccccc2)o1 | -19.2 | 11.1 | / | i | 2.3 | 5.8 | / | -3.2
